CDC25B-CDK2 inh = human CDC25B-CDK2/CyclinA binding inhibition; 94,000 tested, 0.72% active; z-score (no concentration beside the values); HTRF CDC25B-CDK2/CyclinA binding, anti-His/anti-Flag; active compounds read high;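 note: score is relative to mean and SD of negative controls; strong numbers were not always called active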
TAR Tat displ = HIV-1 TAR-Tat binding disruption | HIV-1 TAR RNA, Tat peptide displacement FRET; active compounds read high | z-score (test concentration not listed) | 100,000 tested, 0.6% active | AID 1259389;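 note: score is relative to mean and SD of negative controls; some compounds called inactive have numbers as strong as hits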
Starred values were filed as active, the others as inactive; x = not tested or not shown.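 Rule for the calls: active = z-score from 3 up in half or more of its runs; inactive = the rest.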

SMILES	CDC25B-CDK2 inh	TAR Tat displ
COc1ccc(Nc2cnn(-c3nc4ccccc4s3)c(=O)c2Cl)cc1	-0.75	1.1
O=C(NCCC1=CCCCC1)C1CCCN(c2nnc(N3CCCC3=O)s2)C1 (stereo unspecified)	-1.4	2.8
Cc1cc(C)c(NS(=O)(=O)c2ccc3c(c2)NC(=O)CCS3)c(C)c1	x	0.14
CCC(C)NS(=O)(=O)c1cc(-c2n[nH]c(=O)c3c2CCCC3)ccc1C (stereo unspecified)	-1.4	2.4
CC(C)CC(F)Cc1cnc(=O)[nH]c1 (stereo unspecified)	-1.4	x
Cc1cc2nc(CSc3nnc(NC(=O)c4ccccc4F)s3)cc(=O)n2o1	x	0.62
COc1ccc(/C=C/c2nn3c(C4COc5ccccc5O4)nnc3s2)cc1 (stereo unspecified)	-0.56	3
CCC(C)N(CCNC(=O)C1CCN(C(=O)c2cc3sccc3n2C)CC1)C1CCCCC1 (stereo unspecified)	-1.4	-0.52
CC(=O)N1CCN(c2cc(N3CCOCC3)nc(C)n2)CC1	1.6	1.5
COc1cccc(C2C3(C#N)C(N)=NC4(OCCO4)C23C#N)c1 (stereo unspecified)	-1.3	x
Cc1nn(C)c2c1c(-c1ccccc1)cc(=O)n2CC(=O)c1c(C)n(C)c2ccccc12	x	0.58
Cc1ccn2c(Nc3ccc4c(c3)OCO4)c(-c3ccsc3)nc2c1	-2.6	x
CC1=CCCC(C)(C)C1/C=C(\C)C(=O)/C=C/c1cccs1 (stereo unspecified)	1.3	x
Cc1cc(-c2ccc(S(=O)(=O)NCCN3CCOCC3)s2)n[nH]1	x	0.5
COc1cccc(/C=N/NC(=O)Cn2c(-c3nonc3N)nc3ccccc32)c1OCc1ccc(Cl)cc1Cl	1.3	x
COc1ccc(OC)c(S(=O)(=O)N2CCOCC2)c1	-1.6	0.46
FC(F)(F)c1nnc2sc(COc3ccccc3)nn12	-1.7	0.75
Cc1ccc(SCC(=O)c2ccc(Br)cc2)cc1	-1.4	x
COc1ccccc1N(CC(O)COc1ccc(Cl)cc1)S(=O)(=O)c1ccccc1 (stereo unspecified)	-1.9	1.4
CCN(C(=O)c1sc2nc3n(c(=O)c2c1C)CCCCC3)c1ccc(F)cc1	x	1.5
CCC(C(=O)O)n1c(C)c2cnn(-c3ccccc3)c(=O)c2c1C (stereo unspecified)	-0.7	0.46
C=CCn1c(SCc2cc(F)ccc2F)nc2cc(C(=O)NCc3ccco3)ccc2c1=O	-1.2	x
O=C(NCCc1ccccc1)NC1COc2ccccc2C1 (stereo unspecified)	x	0.47
CC1=C(C(=O)Nc2ccc(Cl)cc2C(=O)NCCC(C)C)SCCO1	x	1.2
CCCN(CCC)c1ncnc2c1cnn2-c1ccc(Cl)cc1	-3.9	x

Two compounds picked at random from those above:
SMILES	CDC25B-CDK2 inh	TAR Tat displ
CC1=CCCC(C)(C)C1/C=C(\C)C(=O)/C=C/c1cccs1 (stereo unspecified)	1.3	x
COc1ccccc1N(CC(O)COc1ccc(Cl)cc1)S(=O)(=O)c1ccccc1 (stereo unspecified)	-1.9	1.4

Carrying on.
SMILES	CDC25B-CDK2 inh	TAR Tat displ
COc1ccccc1-c1nc(CN(C)S(=O)(=O)c2cccc3nsnc23)c(C)o1	x	0.2
CCOC(=O)N1CCN(C(=O)CCS(=O)(=O)c2ccc3c(c2)CCN3C(C)=O)CC1	x	1.1
COc1cc(C(=O)NNC(=O)c2cc(OC)c(OC)c(OC)c2)cc(OC)c1OC	-0.7	x
CN1CCN(C(=O)c2ccc3c(=O)n4c(nc3c2)CCCC4)CC1	x	2.1
CCOc1ccc(/C(O)=C2\C(=O)C(=O)N(CCN(C)C)C2c2ccc(Br)cc2)c(C)c1 (stereo unspecified)	-1.7	1.6
COc1ccc(-n2ncc3c2ncn2nc(Cc4ccccc4)nc32)cc1	-1.7	2
COC(=O)c1cc2occc2n1Cc1nc(-c2ccc(Cl)cc2)oc1C	0.37	-0.8
CCCN1CCN(S(=O)(=O)c2csc(C(N)=O)c2)CC1	x	1.2
COc1ccc2c(c1)C(SCCC(=O)NC(C)C)CC1(CCCCC1)O2 (stereo unspecified)	x	2.6
CCc1ccc(-c2nc(C)c(C(C)=O)s2)cc1	-0.02	0.3
CC1(C)Cc2c(c(N3CCOCC3)nc3sc4c(NCc5ccco5)nnnc4c23)CO1	-0.45	-1.9
O=c1c2cc3c(cc2nc2sc(Nc4cccc(Cl)c4)nn12)OCO3	-0.16	0.98
Cc1ccc2c(c1)sc1nc(C)c(S(=O)(=O)Nc3ccc(Br)c(C)c3)c(=O)n12	x	1.4
Cc1cc(-c2ccc(C)c(S(=O)(=O)N3CCN(c4ccc(N5CCOCC5)nn4)CC3)c2)on1	x	0.3
CCOC(=O)C(=O)/C=C(\O)c1ccc(OC)cc1	-1.5	x
COc1ccc2[nH]c(C(=O)NCc3ccc4c(c3)OCO4)cc2c1	-2.9	x
Cc1cc(N(CCO)CCO)n2nc(-c3ccccc3C)nc2n1	-1.9	2.7
O=C(Cn1nc2c(cc1=O)CCCC2)Nc1ccccc1Cl	x	2.2
O=C(Nc1ccc(Cl)cc1)N1CCC(CN2CCCC2)CC1	x	0.15
Cc1cccn2c(=O)c(C(=O)N3CCCC3)cnc12	x	-1.4
Cc1cc(-c2ccc(S(=O)(=O)N3CCC(Cc4ccccc4)CC3)s2)n[nH]1	x	0.42
Cc1cc2[nH]c(=O)c(=O)[nH]c2cc1S(=O)(=O)NCc1cccs1	x	1.2
COc1ccc(OC)c(C2CC(=O)NC(N)=N2)c1 (stereo unspecified)	-0.65	0.78
O=C(Nc1cccc(F)c1)C1=Cc2sc3c(c2CS1)CCCC3	x	-1.3
CN1CCN(C(=O)CN2C(=O)c3cccnc3Sc3ccccc32)CC1	x	0.55

Additional structures.
SMILES	CDC25B-CDK2 inh	TAR Tat displ
Nc1nc2c(c(=O)[nH]1)C(c1ccc(F)cc1)CC(=O)N2 (stereo unspecified)	-0.37	0.85
c1ccc2c(c1)NC(c1ccncc1)n1c-2nc2ccccc21 (stereo unspecified)	1.1	x
CC(=O)Nc1c2n(c3ccc(F)cc13)CC(C)(C(=O)NCCC(C)C)N(C1CCCC1)C2=O (stereo unspecified)	x	0.61
CCOC(=O)C(C(=O)OCC)c1c([N+](=O)[O-])c(=O)n(-c2ccccc2)c2ccccc12	0.28	x
O=C(NCCO)c1c(O)nc2ccccn2c1=O	-0.69	-0.72
Cc1cn2c(=O)cc(CSc3ccccc3NC(=O)C(C)(C)C)nc2s1	x	0.2
CC1CCCCC1NC(=O)C1CCC(CNS(=O)(=O)c2ccc3c(c2)C(C)(C)C(=O)N3C)CC1 (stereo unspecified)	x	0.47
O=C(NCc1cccs1)[C@H](CSCc1ccccc1)N1Cc2ccccc2C1=O	0.73	x
N[C@@H](Cc1ccc([N+](=O)[O-])cc1)C(=O)O	-1.5	x
c1ccc(-c2ccc(C3Nc4cccc5cccc(c45)N3)cc2)cc1	0.78	5.3
COc1ccc(S(=O)(=O)[C@H]2CS(=O)(=O)C[C@@H]2N2CCN(C(C)=O)CC2)cc1	0.09	1.9
CC(C)S(=O)(=O)c1csc(NC(=O)Nc2cc(C(F)(F)F)cc(C(F)(F)F)c2)c1Cl	-0.85	x
Cc1nnc2c(N3CCOCC3)nc3ccc(C(=O)c4ccccc4)cc3n12	x	0.61
Cc1ccc2nc3c(cc2c1)CCN3S(=O)(=O)c1ccc(F)cc1	-1.9	0.58
CCOC(=O)NC(=O)c1cn(Nc2ccccc2C(F)(F)F)c(=O)[nH]c1=O	-1.6	x
COc1ccccc1N(CCCN1C(=O)c2cccc3cccc(c23)C1=O)C(=O)c1cccs1	-0.67	x
Cn1c(=O)c(=O)n(C)c2cc(S(=O)(=O)N3CCc4ccccc43)ccc21	0.8	0.9
O=C(NCCN1CCOCC1)c1ccc2c(c1)N(Cc1ccc(Cl)cc1)CCS2	-0.43	-0.72
O=c1c2cc3ccccc3oc-2nn1-c1ccc(Cl)cc1	-1.6	0.7
COC(=O)C[C@@H]1C2(C)C(=O)[C@@H](CC3=C4CC(=O)O[C@@H](c5ccoc5)[C@]4(C)CCC32)[C@H](OC(C)=O)C1(C)C (stereo partly specified)	x	4.1
CCOC(=O)CCc1c(C)nn(-c2ccc3nnc(C)n3n2)c1C	0.82	0.77
CC1CN(c2nc(-c3ccccc3)nc3ccccc23)CC(C)O1 (stereo unspecified)	-1.6	x
Cc1onc(-c2ccccc2)c1-c1[nH]nc(N)c1C#N	-2	x
COc1ccc(NC(=O)C2=Cc3cc(Cl)cc(OC)c3OC=C2)c(OC)c1	-1.6	0.43
CC(C)C[C@H](NC(=O)C1OC1C(=O)O)C(=O)NCCCCN=C(N)N (stereo partly specified)	-2	x

Next results.
SMILES	CDC25B-CDK2 inh	TAR Tat displ
COC(=O)CCCCCCCC(=O)Nc1ccc(C(F)(F)F)cc1	-0.63	x
Cc1nnc(SCCn2c(N3CCCC3)nc3c2c(=O)n(C)c(=O)n3C)s1	-0.65	x
CCc1ccc(-c2[nH]nc3nc(-c4cccc(O)c4)cc(C(=O)O)c23)cc1	x	1.3
Cc1cc2c(cc3c(SCc4nc(-c5cccc(Br)c5)oc4C)nnc(C)n32)o1	x	-1.7
CCOC(=O)C1=C(C)Nc2nc3ccccc3n2C1c1ccc(Cl)cc1 (stereo unspecified)	x	1.8
COc1ccc(CCNS(=O)(=O)c2cnc[nH]2)cc1OC	-1.6	-0.82
Cc1ccc(C2c3c(oc4ccccc4c3=O)C(=O)N2c2nnc(C(C)C)s2)o1 (stereo unspecified)	-0.03	-0.46
CC1/C(=N/O)C[C@@H]2C[C@H]1C2(C)C (stereo partly specified)	x	1.6
CC(C)CC(NS(=O)(=O)c1ccc2c(c1)oc(=O)n2C)C(=O)Nc1ccc2c(c1)OCCO2 (stereo unspecified)	0.23	0.91
CCCCc1nn2c(=O)cc(COC(=O)c3ccccc3C)nc2s1	x	0.39
Cc1c(C(=O)NCc2ccco2)oc2ccc(S(=O)(=O)N3CCOCC3)cc12	-0.3	x
O=C(NC1CCCC1)C1CCCN(c2nnc(-n3cccc3)s2)C1 (stereo unspecified)	-0.28	1.3
O=C(NCCc1ccco1)C1CCN(c2nc3cccnc3s2)CC1	x	0.8
O=S(=O)(NCc1ccco1)c1ccc2[nH]c3c(c2c1)CCCCC3	x	4.1
Cc1ccc(N2CC(O)=C(c3nc4ccccc4[nH]3)C2=N)cc1C	-0.92	3
COc1c(C(N)=O)csc1Br	-1.6	x
O=C(C(=O)N1CCN(c2ccccc2Cl)CC1)c1c[nH]c2ccccc12	-1.7	1.3
COC(=O)CSc1ccnc2cc(Cl)ccc12	0.16	x
CC1(C)Cc2c(c(N3CCOCC3)nc3sc4c(NCCCO)nnnc4c23)CO1	-0.05	0.84
CCNC(=O)CC1Sc2ccc(C(F)(F)F)cc2NC1=O (stereo unspecified)	-1.5	x
CCCOc1ccc(C2c3c(oc4ccc(F)cc4c3=O)C(=O)N2Cc2ccc3c(c2)OCO3)cc1 (stereo unspecified)	-0.1	-1.9
CN1CCN(Cc2nc3c(c(=O)n(C)c(=O)n3C)n2Cc2ccccc2)CC1	-3.5	0.33
CCOC(=O)c1c(C)c(C(=O)NCc2cccs2)c(C)n1C	1.5	x
CCOC(=O)c1[nH]nc2c1C(=O)N(CC)C2=O	-0.11	0.54
O=S1(=O)N=CNc2ccc(S(=O)(=O)NCc3ccc(F)cc3)cc21	x	-2.5

Ordered by SMILES length (low to high): part of the list above.
SMILES	CDC25B-CDK2 inh	TAR Tat displ
CC1/C(=N/O)C[C@@H]2C[C@H]1C2(C)C (stereo partly specified)	x	1.6
CCOC(=O)c1[nH]nc2c1C(=O)N(CC)C2=O	-0.11	0.54
CCNC(=O)CC1Sc2ccc(C(F)(F)F)cc2NC1=O (stereo unspecified)	-1.5	x
COc1ccc(CCNS(=O)(=O)c2cnc[nH]2)cc1OC	-1.6	-0.82
CCOC(=O)c1c(C)c(C(=O)NCc2cccs2)c(C)n1C	1.5	x
CCCCc1nn2c(=O)cc(COC(=O)c3ccccc3C)nc2s1	x	0.39
O=C(NC1CCCC1)C1CCCN(c2nnc(-n3cccc3)s2)C1 (stereo unspecified)	-0.28	1.3
CCOC(=O)C1=C(C)Nc2nc3ccccc3n2C1c1ccc(Cl)cc1 (stereo unspecified)	x	1.8
O=S1(=O)N=CNc2ccc(S(=O)(=O)NCc3ccc(F)cc3)cc21	x	-2.5
O=C(C(=O)N1CCN(c2ccccc2Cl)CC1)c1c[nH]c2ccccc12	-1.7	1.3
Cc1nnc(SCCn2c(N3CCCC3)nc3c2c(=O)n(C)c(=O)n3C)s1	-0.65	x
CC1(C)Cc2c(c(N3CCOCC3)nc3sc4c(NCCCO)nnnc4c23)CO1	-0.05	0.84
Cc1c(C(=O)NCc2ccco2)oc2ccc(S(=O)(=O)N3CCOCC3)cc12	-0.3	x
Cc1ccc(C2c3c(oc4ccccc4c3=O)C(=O)N2c2nnc(C(C)C)s2)o1 (stereo unspecified)	-0.03	-0.46
CCCOc1ccc(C2c3c(oc4ccc(F)cc4c3=O)C(=O)N2Cc2ccc3c(c2)OCO3)cc1 (stereo unspecified)	-0.1	-1.9

Going on with the list:
SMILES	CDC25B-CDK2 inh	TAR Tat displ
Cc1nc2nc(N3C(=O)CCC3=O)nn2c(C)c1Cl	-1.2	0.06
CC(C)C1c2cccn2CCN1C(=O)NCc1ccc(F)cc1 (stereo unspecified)	x	0.45
O=C(C1Cc2ccccc2N1C(=O)c1ccccc1)N1CCc2ccccc2C1 (stereo unspecified)	x	1.2
O=C(O)CCc1ccc(-c2ccc(F)cc2)n1-c1cccc(C(=O)O)c1	-2.9	x
COCCCN(C(=O)NCc1noc2ccccc12)C(C)c1ccncc1 (stereo unspecified)	x	-1.8
CCOC(=O)N1CCN(c2cc(C)nc3nc(-c4ccc(Cl)cc4)nn23)CC1	-1.4	0.35
CNC(=O)C1CCN(S(=O)(=O)c2ccc3c(c2)nc(C)n3C2CCCC2)CC1	0.05	1.6
COc1ccc2cc(S(=O)(=O)c3ccccc3)c(=O)oc2c1	0.62	x
C[C@]12C=CC(=O)C=C1CCC1C2[C@@H](O)C[C@@]2(C)C1CC[C@]2(O)C(=O)CO (stereo partly specified)	x	-0.95
